# BJeLR lethal: BJeLR cell viability loss; BJeLR (HRASV12) viability, CellTiter-Glo ATP luminescence, 48 h; reference of the scale not given here; inhibition, % (concentration not given with the values); actives 0.17% (n = 300,000); AID 1554;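 active means replicate mean above 50%; inconclusive means above 50% but judged a plate artefact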;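 further: 50 nL library stock added to about 25 µL; numbers are from one replicate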
# PrP 5UTR inh: suppresses PrP 5' UTR mRNA reporter expression. cell-based PrP 5' UTR mRNA reporter, plate reader. inhibition, % (no concentration beside the values). actives 0.35% (n = 340,000). AID 488862;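 active means every replicate at 50% or more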;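 further: 0 = median of the neutral control wells; tested in H4 reporter cells; numbers are from one replicate; inactives centre near -14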
# Sa ugtP lethal: growth inhibition of S. aureus ugtP deletion strain; actives 0.54% (n = 330,000); AID 1259309; S. aureus RN4220 ugtP deletion, OD600 growth, 16 h; some inactives read as strong as hits; growth inhibition, % (no concentration beside the values);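 active means z-score under -3 and OD600 up to 0.15 on both plates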;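 further: plate controls were untreated wells for no effect and antibiotic for full effect; wells of about 80 µL received 100 nL stock; the first replicate is given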
# Sa RN4220 lethal: S. aureus RN4220 growth inhibition; OD600, 16 h; inhibition, % (no concentration beside the values); actives 0.33% (n = 330,000); AID 1259311;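 active means z-score of -3 or lower and OD600 up to 0.18 on both plates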;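 further: plate controls were untreated cells for no effect and reference antibiotic for full effect; stock transfer was 100 nL into about 80 µL; one replicate is shown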
# Mtb hypoxia inh: reduces hypoxia-regulated biosensor signal in M. tuberculosis; M. tuberculosis hypoxia-regulated fluorescent reporter, fluorescence; fluorescence inhibition, % (test concentration not listed); actives 0.1% (n = 300,000);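 active means 35 to 45% if threefold the growth effect, above 45% if 1.5-fold the growth effect; inactive means the rest, general growth blockers included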;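 further: wells of about 50 µL received 100 nL stock; 0% = vehicle wells and 100% = reference inhibitor wells; whole bacteria with a GFP reporter of the hypoxia response; strong numbers were not always called active; many hits fall short of the cut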
# Bead autofluor: counter-screen for toxin protease inhibitors: compound fluorescence; actives 3.1% (n = 360,000); compound autofluorescence counterscreen, microsphere flow cytometry; stronger effect = higher value; fluorescence intensity (no concentration beside the values);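 active means at least 3 SD above the mean of all compounds, about 16000 in these data; inconclusive means too few beads counted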;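 further: 100 nL of 1 mM stock went into each well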
# Mtb hypoxia inh growth: further read-out of Mtb hypoxia inh, marked with its call; growth inhibition, %; measured here: M. tuberculosis growth (absorbance);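 0% = vehicle and 100% = reference antibiotic; read after six days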
# * = called active by the depositor; ? = inconclusive; / = no result given; & = joins results of further samples.
SMILES,BJeLR lethal,PrP 5UTR inh,Sa ugtP lethal,Sa RN4220 lethal,Mtb hypoxia inh,Mtb hypoxia inh growth,Bead autofluor
c1ccc2c(c1)CCc1c(-c3ccncc3)n[nH]c1-2,/,-51,-14,11,2,2,5257
CCOC(=O)N1CCN(C(=O)CN(c2ccc(OC)cc2)S(C)(=O)=O)CC1,-3,-18,1,1.7,15,2,8932
COc1ccc(CCNC(=S)N2CCC(C(N)=O)CC2)cc1,6,-15,8,3.9,5,-5,5452
O=C(Cn1ccc([N+](=O)[O-])n1)Nc1nccs1,17,-9,/,/,/,/,10825
O=C(CSc1nc(O)cc(=O)[nH]1)N1CCOCC1,-3,-16,-2,2.4,-9,-1,3656
C=C1C(C)C2C(Cc3ccccc3)NC(=O)[C@]23OC(=O)C=CC(O)CCCC(C)CC=CC3C1O (some centres undefined),/,/,4,8.1,4,-2,/
CCS(=O)c1ccccc1C(=O)OC(C)C(=O)Nc1ccc(S(=O)(=O)N2CCCC2)cc1 (centres undefined),-6,4,4,1.3,-3,2,?
OCCN(CC#CCC(O)(c1ccccc1)C1CCCC1)CCO (centres undefined),-2,-47,-1,2.6,2,2,3723
CSc1nnc([C@@H](NC(=O)OC(C)(C)C)C(C)C)o1,6,-15,4,1.6,6,-5,9707
O=C(NN=Cc1cc2c(cc1Br)OCO2)c1cccnc1,/,/,3,-0.6,11,-7,/
Cn1c(CNC(=O)c2ccccc2F)nnc1SCC(=O)c1ccccc1,1,-22,4,1.5,4,-3,6236
CCOC(=O)C1C(=O)CC(C)(O)C(C(=O)OCC)C1c1ccc(F)cc1 (centres undefined),3,-24,-1,-1.7,-2,10,9356
CC(=O)NCC12CC3CC(C1)CC(C(=O)O)(C3)C2,3,-46,10,2.6,3,12,9612
CC1N(O)C2CCCCCC2N1O (centres undefined),5,-10,0,0.2,/,/,2982
Cn1c(=O)c2c(nc(NCc3ccco3)n2C/C=C/c2ccccc2)n(C)c1=O,19,-6,-5,-9.4,14,5,3382
Cc1ccc(Cl)cc1NC(=O)C1CCCN1S(=O)(=O)c1ccc(-c2ccc(=O)[nH]n2)s1 (centres undefined),6,7,97*,97*,-9,-5,5362
CC(=O)N1CCc2c(sc(NC(=O)CCS(=O)(=O)c3ccc(C)cc3)c2C#N)C1,-3,-7,2,2.4,4,10,6208
Cc1c(Cl)cccc1NC(=S)/C(=C(\[O-])c1ccc(Cl)s1)[n+]1ccccc1,5,-4,-1,-8.1,/,/,1939
O=C(NC(=S)N1CCCCCC1)c1cccc([N+](=O)[O-])c1,/,-21,3,-2.6,3,5,?
Cc1nc(SCC(=O)Nc2ccc3c(c2)OCO3)c(C#N)c2c1CCCC2,-1,-38,-4,13,5,10,2855
O=c1cc(C(F)(F)F)c2cc3c4c(c2o1)CCCN4CCC3,4,-12,-5,5.6,/,/,3966
Cn1c(SCC(=O)Nc2nccs2)nnc1-c1ccc(S(=O)(=O)N2CCCC2)cc1,-8,-3,0,2.6,2,4,19176*
CCCc1nn(C)c(C(=O)Nc2cccc3ccccc23)c1Cl,1,-48,16,21,9,9,2341
O=C(COc1ncnc2c(Cl)cc(Cl)cc12)NCCC1=CCCCC1,-5,-26,-5,1.0,/,/,2942
COc1ccc2ccccc2c1C=NNC(=O)c1cccc(C)c1,/,/,6,0.2,5,-5,/
O=C(CSc1nnc(-c2ccccc2)c(-c2ccccc2)n1)Nc1ccc(Br)cn1,-17,-10,88*,1.2,16,1,1967
COc1c(Cl)cc(C(=O)O)cc1Cl,5,-37,-31,-1.6,/,/,5460
COc1cccc(/C=C2\SC(=S)N(CCC(=O)N3CCCCC3)C2=O)c1,9,-7,-2,3.1,15,17,5072
O=C(OCc1nnc(-c2ccccc2)o1)c1ccc2c(c1)OCCO2,9,-24,2,10,5,-5,3008
COc1ccc(C(=O)CC(=O)C(=O)Nc2cc(OC)c(OC)c(OC)c2)cc1,0,-24,0,2.2,13,5,4047
CC1(C)Cc2c(sc3[nH]c(=S)[nH]c(=O)c23)CO1,9,-22,8,2.3,13,4,5511
CCOC(=O)C1(CC2CC2)CCN(C(=O)c2ocnc2C)CC1,-2,-50,5,1.2,-6,1,4330
CC1(C)C(=O)Nc2ccccc2N1C(=O)COC(=O)c1cc(S(C)(=O)=O)ccc1Cl,/,-29,2,1.7,0,0,6258
Cc1ccc(S(=O)(=O)N(CCC(=O)NCc2ccc(S(N)(=O)=O)cc2)c2ccccc2)cc1,/,-15,9,3.5,0,0,5868
O=C(NCc1cn2ccsc2n1)Nc1ccc(Cl)cc1,-8,-21,5,1.4,-1,9,9081
N/C(CS(=O)(=O)c1ccccc1)=N\OC(=O)c1ccc(F)cc1,8,-26,4,-3.6,2,-8,5298
NS(=O)(=O)c1ccc(CNC(=O)Cc2cccs2)cc1,-13,-14,/,/,/,/,4255
COc1ccc2nc(SC(C)C(=O)NC3CCCCC3)[nH]c2c1 (centres undefined),/,-16,2,2.7,-3,0,6306
COc1cccc(C(=O)N2CCN(Cc3cc(Br)ccc3OC)CC2)c1,/,-11,1,-0.1,/,/,3917
Cc1ccc(CN(C)C(=O)CCc2nc3sc4c(c3c(=O)[nH]2)CCCC4)o1,7,-10,-6,-2.2,4,10,5516
Cc1cc(NC(=O)CSc2nccn2-c2cccc(C)c2C)no1,1,-137,19,5.3,11,2,3922
COc1ccc(CNC(=O)C2CCN(S(C)(=O)=O)CC2)c(OC)c1,4,-1,/,/,/,/,4542
CCN(CC)S(=O)(=O)c1ccc(C)c(NC(=O)CN2C(=O)NC3(CCCC3)C2=O)c1,-5,-30,5,-1.2,14,-5,2923
COc1cc(C=NNc2ccc(C)cc2)cc(Br)c1O,/,/,-1,-1.5,5,0,/
CCOc1ccc(-c2[nH]ncc2Oc2cccc(OC)c2)c(O)c1,0,-9,2,-17,-14,-7,2229
CC1(C)CC(=O)C=C(c2ccc3c(c2)OCO3)C1,4,-13,1,14,15,14,3636
O=S(=O)(c1cc(Cl)ccc1Cl)n1nnc2ccccc21,-8,-13,8,2.3,3,-2,9873
COC(=O)c1ccc(S(=O)(=O)N2CCCC2)o1,2,-17,-5,-3.7,/,/,2800
CCN=C1SC(CC(=O)NCc2ccccc2)C(=O)N1CC (centres undefined),5,-29,-1,1.1,10,3,2210
COc1ccc([C@H]2CC(=O)C=C(c3cc(C=O)ccc3OC)C2)cc1,/,-6,5,2.3,11,4,3150
# Further compounds.
SMILES,BJeLR lethal,PrP 5UTR inh,Sa ugtP lethal,Sa RN4220 lethal,Mtb hypoxia inh,Mtb hypoxia inh growth,Bead autofluor
CC(C)(O)CCC(O)[C@](C)(O)C1CC[C@@]2(O)C3=CC(=O)C4CC(O)C(O)C[C@]4(C)C3CC[C@]12C (some centres undefined),/,/,-3&4,4.9&2.0,4&14,8&17,/
CC(C)NC(=O)CSCc1c(F)cccc1Cl,-3,-22,6,6.4,7,21,16724*
COc1nc(-c2ccccc2)nc(-c2ccccc2)c1C,-4,/,54,-4.3,-1,9,/
CSCCC(NS(=O)(=O)c1ccccc1F)C(=O)NCC(c1ccc(F)cc1)N1CCOCC1 (centres undefined),1,-20,7,2.7,7,-6,/
O=C(N/N=C/c1ccccc1)c1cccc2ccccc12,5,-25,/,/,/,/,4219
COc1cc(CCCN2C(N)=NC[C@@H]2Cc2ccccc2)cc(OC)c1OC,11,-9,/,/,/,/,3575
CC(C)(C)OC(=O)N1CCC(NC(=O)c2nc[nH]c2C(=O)N2CCc3ccccc3C2)CC1,/,-19,6,7.8,6,0,3616
CCCC12CN3CCN(CC(C3)/C1=N\NC(=O)c1ccccc1N)C2,-20,-24,/,/,/,/,9900
COC(=O)CCC(=O)NC(=S)Nc1ccc(S(=O)(=O)N2CCCC2)cc1,0,-17,15,3.5,8,-3,2140
O=C(Nc1ccnn1C1CCN(CCCc2ccccc2)CC1)c1ccccc1,-14,-65,7,0.6,10,-15,/
Cc1ccc(Cn2ncn3c(cc4ccccc43)c2=O)cc1,8,-14,93*,1.9,4,13,3200
C=CCSc1nnc(-c2cc(Br)ccc2N)c(=O)[nH]1,-6,-13,-10,2.9,-7,2,4053
CCCn1c(=O)c2c(nc(Br)n2CCC)n(C)c1=O,7,-8,4,3.0,10,9,4457
COc1ccc([C@@H]2[C@@H]3C(=O)N(C(C)(C)C)C(=O)[C@@H]3[C@]3(Cc4ccccc4)C(=O)N(c4ccc(Br)cc4)C(=O)N23)cc1,0,-6,-7,17,-8,-1,3690
Cc1ccc2c(c1)sc1nc(=O)n(-c3cccc(Cl)c3)c(=O)n12,7,-53,-15,0.7,-6,-3,22395*
CCOC(=O)C(NC(=O)C1CCCN1C(=O)OCc1ccccc1)C(=O)OCC (centres undefined),-3,4,2,5.0,/,/,2151
CSc1cccc(NC(=S)N(Cc2ccccc2)Cc2cccnc2)c1,-21,-28,12,-1.5,7,12,3849
O=C(c1ccccc1)N1CN2CN(C(=O)c3ccccc3)CC([N+](=O)[O-])(C2)C1,4,-28,10,5.0,-4,6,2581
N#Cc1ccc(Oc2cc(C(F)(F)F)nc(-c3ccccn3)n2)cc1,-4,-15,3,3.7,4,11,6235
CCC(C)(O)c1[nH]c2ccc(C(F)(F)F)cc2c1C (centres undefined),1,-13,/,/,/,/,3065

# Random excerpt: 4 records from the list, in no set order.
SMILES,BJeLR lethal,PrP 5UTR inh,Sa ugtP lethal,Sa RN4220 lethal,Mtb hypoxia inh,Mtb hypoxia inh growth,Bead autofluor
COc1ccc([C@@H]2[C@@H]3C(=O)N(C(C)(C)C)C(=O)[C@@H]3[C@]3(Cc4ccccc4)C(=O)N(c4ccc(Br)cc4)C(=O)N23)cc1,0,-6,-7,17,-8,-1,3690
CCCn1c(=O)c2c(nc(Br)n2CCC)n(C)c1=O,7,-8,4,3.0,10,9,4457
C=CCSc1nnc(-c2cc(Br)ccc2N)c(=O)[nH]1,-6,-13,-10,2.9,-7,2,4053
N#Cc1ccc(Oc2cc(C(F)(F)F)nc(-c3ccccn3)n2)cc1,-4,-15,3,3.7,4,11,6235

# (cont.)
SMILES,BJeLR lethal,PrP 5UTR inh,Sa ugtP lethal,Sa RN4220 lethal,Mtb hypoxia inh,Mtb hypoxia inh growth,Bead autofluor
O=C1CC2(CCCC2)C(=O)N1CN1CCN(S(=O)(=O)c2ccc(Cl)c(Cl)c2)CC1,/,-20,2,0.4,-2,4,3319
O=C(NN=Cc1coc2ccccc2c1=O)c1cn(-c2ccccc2)nc1-c1ccccc1,/,/,2,9.8,4,3,/
S=C(Nc1ccccc1Cl)N1CCCCC1,0,-19,8,6.0,10,4,2416
CC1=CC(C)C2C(=O)N(O)C(=O)C2C1 (centres undefined),1,-13,3,1.5,/,/,4584
CCOC(=O)CSc1nc2c(cnn2-c2ccc(C)cc2)c(=O)[nH]1,4,-1,-2,0.2,/,/,3374
O=C(Nc1ccc2oc(-c3ccc4ccccc4c3)nc2c1)c1cccs1,1,-76,16,1.9,/,/,2765
CC1CCCCC1NC(=O)C(C)N1C(=O)c2ccccc2C1=O (centres undefined),/,-6,1,-1.3,-6,2,9561
O=C(O)Cc1sc(N/N=C\c2ccccc2)nc1-c1ccccc1,0,-25,/,/,/,/,2196
O=C(NNc1nc(-c2ccccc2)cs1)c1cccs1,-12,/,-14,-13,4,8,/
O=C(COC(=O)c1cc(S(=O)(=O)N2CCCC2)ccc1O)NCCc1ccccc1,/,-69,2,-1.1,2,-6,5321
CC(=O)Nc1ccc(S(=O)(=O)Oc2cccc(C=N/N=C3/NC(=O)C(CC(=O)O)S3)c2)cc1 (centres undefined),/,/,4,4.3,8,1,/
C=CCOc1c(Br)cc(CNc2ccc(NC(=O)CCC)cc2)cc1OCC,-4,1,-16,-7.3,7,6,2847
CC(C)(C)c1ccc(S(=O)(=O)N2CCC(O)(c3ccc(Cl)cc3)CC2)cc1,-4,-20,-7,-1.8,8,-1,4207
O=C1CCCN1c1ccc(N2CCCC2=O)cc1,-5,-42,6,3.1,15,1,/
Cc1ccc(-c2cc(C(=O)NN=Cc3ccccc3O)n[nH]2)o1,/,/,-3,1.7,2,1,/
CC(=O)Nc1cccc(N=NN2CCCCC2)c1,/,-31,-6,0.4,2,-2,4206
O=C(c1ccccc1[N+](=O)[O-])N(CCc1ccccc1)Cc1ccccc1,4,1,6,1.5,9,13,5606
Clc1cccc(-c2nc3nc4ccccc4nc3n2Cc2ccccc2)c1,-2,1,/,/,/,/,2172
CS(=O)(=O)N(CC(=O)N1CCCCCC1)Cc1ccc(Cl)cc1,-16,-14,-3,15,4,3,22456*
Cc1ccc(C2N(c3ccc(Cl)cc3)C(=O)N3CCCN23)cc1 (centres undefined),-1,14,-3,1.0,11,3,?
